Screens: PubChem BioAssay, ICCB-Longwood Screening Facility, Harvard Medical School
AID504770 – growth inhibition of E. coli YBA685, primary screen, V. cholerae RctB inhibitors | E. coli YBA685 rctB-dependent plasmid, OD600 growth, 3 h; hits give low values | z-score (concentration not given with the values) | 0.27% of 130,000 active | AID 504770, 2011;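 active = z-score under -2 on both plates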;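 also: wells of about 30 µL received 100 nL stock; score is relative to mean and SD of the test wells; the first replicate is given; strong numbers were not always called active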
CapD inh – Bacillus anthracis CapD inhibitors, primary screen, biochemical, fluorescence intensity | 0.23% of 140,000 active | z-score (no concentration beside the values) | AID 492967, 2010 | purified CapD enzyme, fluorescence intensity read-out; hits give low values; some hits fall short of the stated cut;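 active = z-score under -4 in either of two replicates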;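 also: stock transfer was 100 nL into about 40 µL; score is relative to mean and spread of the plate; one replicate is shown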
* = called active by the depositor; · = no result given.

SMILES	AID504770	CapD inh
O=C(O)c1ccc2nc(-c3ccc(C#Cc4ccccc4)cc3)c(-c3ccc(C#Cc4ccccc4)cc3)nc2c1	·	0.72
CC1=CCC2CC1C(c1ccccc1)OC2(C)C (stereo not given)	0	0.055
O=c1[nH]c2ccc(NCc3ccc(F)cc3)cc2[nH]1	0.6	0.33
CC(=N/O)/C(=N\O)c1ccc(C)o1	-0.4	·
CCOC(=O)C1=C(N)N(c2ccc(S(N)(=O)=O)cc2)C2=C(C(=O)CCC2)C1c1ccc(SC)cc1 (stereo not given)	·	0.18
COc1ccc(N=C2SC(C(=O)Nc3ccc(OC)cc3)CC(=O)N2CCc2ccc(OC)c(OC)c2)cc1 (stereo not given)	·	-0.1
Cc1ccc2c(CN3CCN(S(=O)(=O)c4ccccc4)CC3)cc(=O)oc2c1C	0	·
CCOC(=O)c1cc2occc2n1CC(=O)N(C(C)C)C(C)C	-0.3	·
Nc1ncnc2c1ncn2CCc1ccccc1	-0.75	1.3
Cn1cnc(S(=O)(=O)Nc2ccccc2N2CCOCC2)c1	-0.35	0.25
Cc1ccc(C2=NN(C(=O)CSc3ccc4c(c3)OCCO4)C(c3ccco3)C2)cc1 (stereo not given)	-0.3	·
Cc1ccc(C)c(N2C(=O)N(Cc3ccccc3Cl)C3CS(=O)(=O)CC32)c1 (stereo not given)	-0.4	-0.67
C=CCN1C(=O)/C(=c2\sc3n(c2=O)C(c2ccc(OC)cc2)C(C(=O)OC)=C(C)N=3)c2ccccc21 (stereo not given)	·	-0.72
O=C(/C=C/c1ccccc1)NC1CC1	-1.1	-0.1
C=CCc1cccc(Cl)c1OCCSc1ncccn1	-0.8	0.2
CCOC(=O)c1cc2c(nc1N)CC(C)(C)OC2	0.15	·
Cc1nc(C)c2c(=O)cc(-c3ccccc3)[nH]c2n1	-0.8	0.065
Cc1ccc(N=c2scc(-c3cccs3)n2CCCN2CCOCC2)cc1	1.8	·
CCOC(=O)N1CCN(C(=O)COc2ccccc2)CC1	1.4	-0.26
Cc1nc(C(=O)Nc2ccc3nsnc3c2)cc2c1[nH]c1ccccc12	1.6	2.5
CC(C)(C)c1cc(NC(=O)COc2ccc(Cl)cc2Cl)on1	-0.15	·
CC1(C)N=C(c2cccnc2)N(O)C1(O)c1ccccc1 (stereo not given)	-0.5	0.43
CC1=C(C(=O)Nc2ccccc2)C(c2ccc3c(c2)OCO3)C2=C(CC(C)(C)CC2=O)N1 (stereo not given)	-0.2	38
CC(=O)Nc1ccccc1C(=O)NCc1ccco1	0.35	·
CCOC(=O)c1c(C)nc(-c2ccccc2)nc1NC(=O)CC	-0.25	0.18
O=C(Nc1sc2c(c1-c1nc3ccccc3s1)CCCC2)c1ccc(S(=O)(=O)N2CCOCC2)cc1	·	-0.73
CCN(CC)C(=O)CSC1=C(C#N)C(c2ccccc2F)C(C(=O)Nc2ccccc2)=C(C)N1 (stereo not given)	-1	-0.44
Cc1cccc(CN2C(=O)C(O)(CC(=O)c3ccco3)c3ccccc32)c1 (stereo not given)	-0.55	-0.21
CCc1ccc(CNC)cc1	0.7	·
CS(=O)(=O)/N=C(\N)c1ccncc1	-0.65	0.46
CCOc1ccc(NC(=O)C2C3C=CC4(O3)C2C(=O)N(C(C)C)C4C(=O)NC2CCCCC2C)cc1 (stereo not given)	·	0.23
CC1(C)CC(=O)C2=C(C1)OC(N)=C(C#N)C2c1ccccc1 (stereo not given)	-0.6	0.22
c1ccc(OCCCn2nnc(-c3ccncc3)n2)cc1	-0.05	·
CNC(=O)NC(=O)C(c1ccccc1)N1CCCC(c2nnc3ccc(C(F)(F)F)cn23)C1 (stereo not given)	0.35	·
CCCC(=O)NC1=C(C(=O)OCC)C2(CCCC2)Cc2ccccc21	·	0.035
CCCNC(=O)COc1ncnc2ccccc12	-1.1	·
COC(=O)c1ccccc1N(C)C(=O)c1cc(OC)c(OC)c(OC)c1	0.55	1.5
C/C(=N\N1C(=O)c2ccccc2NC1c1ccccc1)c1ccccc1O (stereo not given)	0.95	1.2
CCCCNc1nc(SCC(=O)NCCC(C)C)nc2ccccc12	·	0.36
O=C(c1ccc(N2CCCC2)c(NC(=S)NC2CCCC2)c1)N1CCCC1	2.7	-1.2
O=C(O)c1ccccc1SC1CC(=O)N(Cc2ccccc2)C1=O (stereo not given)	-0.05	·
O=S(=O)(c1cccc(F)c1)N1CCN(c2cnccn2)CC1	·	37
Cc1nnsc1C(=O)NNC(=O)OCCN1CCN(Cc2cc3ccccc3o2)CC1	·	-0.73
Cc1cccc(S(=O)(=O)N2CC(C)OC(C)C2)c1 (stereo not given)	·	-0.12
c1ccc(NC2=NCCC2)cc1	0.05	0.27
CC(C)(C)c1cc(OC(=O)c2ccc(C(F)(F)F)cc2)c(C(C)(C)C)cc1OC(=O)c1ccc(C(F)(F)F)cc1	·	0.27
O=C(O)CC1(CC(=O)NCc2cccnc2)CCCCC1	1.3	-0.095
CN(C)C(=O)ONC(=O)Cc1ccccc1	-3.9*	0.2
CO/N=C1\CCCc2c(C(=O)NN)sc(SC)c21	-0.45	-0.51
Cc1ccc(N2C(=O)/C(=C/c3ccc(-c4cc(Cl)ccc4Cl)o3)C=C2c2ccccc2)c(C)c1	·	0.17

The last two records of the section before open the next one.
SMILES	AID504770	CapD inh
CO/N=C1\CCCc2c(C(=O)NN)sc(SC)c21	-0.45	-0.51
Cc1ccc(N2C(=O)/C(=C/c3ccc(-c4cc(Cl)ccc4Cl)o3)C=C2c2ccccc2)c(C)c1	·	0.17
CCn1nc(C)c(CCC(=O)O)c1C	-0.7	·
Cc1ccc(S(=O)(=O)N2CCCCC2C(=O)O)cc1 (stereo not given)	-0.9	-0.33
COc1ccc(-n2nnc3c(SCC(=O)NC4CCCCC4)ncnc32)cc1	-0.65	·
COC(=O)C(CCSC)NC(=O)c1ccc(C(F)(F)F)cc1 (stereo not given)	·	0.58
Cc1ccc(C)n1-c1ccc(C(=O)O)cc1O	1.3	-9*
Cn1cc(CC(=O)NCc2ccccn2)c2ccccc21	-0.95	0.12
O=C(/C=C/c1ccc(OCc2c(F)cccc2Cl)cc1)NC1CCCC1	·	-0.095
CC(Sc1cccc[n+]1[O-])C(=O)Nc1cc(C(F)(F)F)ccc1Cl (stereo not given)	0	0.29
O=c1[nH]ccn(-c2ccccc2)c1=O	-0.2	-2.1
CCOC(=O)C1=C(C)NC2=C(C(=O)c3ccccc32)C1c1cc(OC)c(OC)c(OC)c1 (stereo not given)	·	-0.37

Molecules shown so far that contain a tert-butyl group, in the order listed:
SMILES	AID504770	CapD inh
CC(C)(C)c1cc(NC(=O)COc2ccc(Cl)cc2Cl)on1	-0.15	·
CC(C)(C)c1cc(OC(=O)c2ccc(C(F)(F)F)cc2)c(C(C)(C)C)cc1OC(=O)c1ccc(C(F)(F)F)cc1	·	0.27

Molecules listed so far that contain four or more nitrogen atoms (eleven):
SMILES	AID504770	CapD inh
Nc1ncnc2c1ncn2CCc1ccccc1	-0.75	1.3
Cn1cnc(S(=O)(=O)Nc2ccccc2N2CCOCC2)c1	-0.35	0.25
Cc1nc(C(=O)Nc2ccc3nsnc3c2)cc2c1[nH]c1ccccc12	1.6	2.5
CCN(CC)C(=O)CSC1=C(C#N)C(c2ccccc2F)C(C(=O)Nc2ccccc2)=C(C)N1 (stereo not given)	-1	-0.44
c1ccc(OCCCn2nnc(-c3ccncc3)n2)cc1	-0.05	·
CNC(=O)NC(=O)C(c1ccccc1)N1CCCC(c2nnc3ccc(C(F)(F)F)cn23)C1 (stereo not given)	0.35	·
CCCCNc1nc(SCC(=O)NCCC(C)C)nc2ccccc12	·	0.36
O=C(c1ccc(N2CCCC2)c(NC(=S)NC2CCCC2)c1)N1CCCC1	2.7	-1.2
O=S(=O)(c1cccc(F)c1)N1CCN(c2cnccn2)CC1	·	37
Cc1nnsc1C(=O)NNC(=O)OCCN1CCN(Cc2cc3ccccc3o2)CC1	·	-0.73
COc1ccc(-n2nnc3c(SCC(=O)NC4CCCCC4)ncnc32)cc1	-0.65	·

Other entries follow:
SMILES	AID504770	CapD inh
CC(O)Cn1c(Br)nc2c1c(=O)n(C)c(=O)n2C (stereo not given)	0.55	·
COc1ccc(N2CCN(S(=O)(=O)c3cc(C(=O)Nc4ccc(C(C)C)cc4)ccc3F)CC2)cc1	·	-1
CCn1c(-c2ccco2)nn(CN(C)Cc2cccc(Cl)c2)c1=S	1.2	·
CC1(C)CC(=O)C2=C(C1)Nc1[nH]c(=O)[nH]c(=O)c1C2c1ccc(Cl)cc1 (stereo not given)	·	5.9
CC1CCC(C(=O)NC(C(=O)N2CCC3(CC2)OCCO3)C(C)C)CC1 (stereo not given)	-0.15	-0.21
CCOC(=O)c1sc(=S)n2c1[nH]c(=O)c1ccc(C(=O)OC)cc12	-0.75	-0.99
O=c1c(-c2ccc(Cl)cc2Cl)c(C(F)(F)F)oc2cc(O)ccc12	-1	-0.68
N#Cc1c(-c2ccc(Cl)cc2)ccn(Cc2cccc(C(F)(F)F)c2)c1=O	·	0.66
COc1ccc(C(=O)Nc2ccc(-n3nncc3-c3ccccc3)cc2)cc1	-0.9	1.1
COc1ccc(C(c2ccc3cccnc3c2O)N2CCCC2)cc1 (stereo not given)	-0.45	0.05
N#C/C(=C\NCc1cc(C(F)(F)F)cc(C(F)(F)F)c1)S(=O)(=O)Cc1ccco1	1.1	-0.23
CCCCn1nc(NC(=O)C(C)C)c2cc3cc(OC)ccc3nc21	0.1	-0.16
COc1ccc(C=Nc2ccc(-c3csnn3)cc2)cc1	·	0.79
CC1=CC(C)C(C2OC(C)CC(C)(C)O2)C(C)C1 (stereo not given)	-0.3	0.11
CCc1ccc(NC(=O)c2cc(S(=O)(=O)N3CCc4ccccc43)ccc2F)cc1	·	-0.17
Cc1ccccc1N1CCN(Cc2ccc(O)cc2)CC1	-0.8	0.25
CC(C)CN(C(=O)Cn1nnnc1N)C1(C(=O)Nc2ccccc2)CCCCC1	-0.3	-0.83
CCOC(=O)CSC1=N/C(=C/c2ccsc2)C(=O)N1c1ccccc1	0	0.01
Cc1cc(Nc2ccccc2)n2cnnc2n1	0.55	-0.56
CC1=C(C(=O)OC2CCCC2)C(c2coc3ccc(C)cc3c2=O)C2=C(CCCC2=O)N1 (stereo not given)	·	-0.45
O=C(O)CCc1ccc(-c2ccc(F)cc2)n1Cc1ccco1	0.35	0.15
Fc1ccc(CN2CCCN(c3ccc4c(c3)OCCO4)CC2)cc1	-0.25	·
CCOC(=O)C1=C(N)Oc2c(oc(CO)cc2=O)C12C(=O)N(CC(N)=O)c1ccccc12 (stereo not given)	1.9	·
Cc1nn(-c2ccccc2Cl)c(Cl)c1C=Nc1cc(Cl)ccc1C#N	-0.5	·
CCC(C)c1ccc(NC(=O)COC(=O)c2cccc(F)c2)cc1 (stereo not given)	-0.8	-0.78
CCOC(=O)c1oc2ccc(Br)cc2c1CSc1nnc(C(C)(C)C)n1N	-0.2	·
O=C(O)C1CCN(c2nccs2)CC1	-0.45	·
CN=C(Nc1ccnn1C1CCCCC1)c1ccccc1	-0.05	·
Cc1ccc(CN(C)C(=O)C2CCCCC2)o1	-0.3	·
O=C(NCC1CCCO1)c1ccc(NC(=O)c2ncn[nH]2)cc1 (stereo not given)	0	·
Clc1ccc(-c2cs/c(=N\c3ccccn3)n2-c2ccccc2)cc1	·	-0.29
CCOc1ccc(C=C2C(=O)OC(c3ccccc3)OC2=O)cc1 (stereo not given)	-0.3	-0.1
CCOC(=O)c1cnn(-c2ncnc3c2cnn3C)c1C(F)(F)F	-0.55	12
CCOc1ccc(/C=N/NC(=O)Cc2c[nH]c3ccccc23)cc1OC	·	-0.055
COc1ccc(CN2CCN(C(=O)OCc3ccc([N+](=O)[O-])cc3)CC2)cc1OCc1ccccc1	·	-0.02
Cc1ccc2nc(COC(=O)/C=C/c3c(C)nn(C4CCS(=O)(=O)C4)c3Cl)cc(=O)n2c1 (stereo not given)	-0.05	·
CN1C(=S)N(C2CCCCC2)C(=O)/C1=C/c1ccccc1O	0.15	-0.08
COc1c(C(=O)NC(=S)NCc2ccco2)cc2ccccc2c1Br	0	0.15
NNC(=O)CNS(=O)(=O)c1ccccc1	-0.75	0.18
Cc1cccnc1NC(=S)Nc1cccc(C(F)(F)F)c1	·	0.11
Cc1[nH]c(C)c2c(=O)n(-c3ccccc3)ncc12	1.1	-0.11
CNC(=O)CCC(=O)N1CC(C)Oc2ccccc21 (stereo not given)	-2.4	0.57
C=CCOC(=O)C1=C(C)Nc2[nH]c(=O)[nH]c(=O)c2C1c1ccccc1 (stereo not given)	1.6	0.13
O=[N+]([O-])/C(C(Cl)=C(Cl)Cl)=C(/Sc1ccccc1)N1CCCCC1	·	-0.3
O=C(Nc1ccccc1N1CCCCC1)C1=CCCCC1C(=O)O (stereo not given)	0.3	0.07
Brc1cccc(OCCOc2cccc(-n3cnnn3)c2)c1	0.2	·
CC(C)(C)NC(=O)c1ccc2c(c1)C(=O)N(C1CCCCC1)C2=O	1.1	-0.83
NC(=O)CC(c1ccccc1)c1ccc2c(c1)OCO2 (stereo not given)	-0.8	·
O=C(CNc1ccc2c(c1)oc1ccccc12)c1ccc2c(c1)OCO2	2.5	7.4
COc1cc(C(=O)NC2CC2)nc(OC)n1	·	-0.56

Going on with the list:
SMILES	AID504770	CapD inh
Cc1ccc2[nH]c3c(=O)n(CC(=O)N(CC(C)C)CC(C)C)ncc3c2c1	0.3	5.9
COc1ccccc1C(=O)Oc1ccc2ccc(=O)oc2c1	1.9	·
O=C(O)C1CC=C(Cl)CC1C(=O)Nc1nccs1 (stereo not given)	·	0.18
C=CCOc1ccc(/C(O)=C2/C(=O)C(=O)N(Cc3ccco3)C2c2ccccc2)cc1 (stereo not given)	0.95	0.61
CN(C)c1ccc(NC(=O)Nc2cccc(Cl)c2)cc1	-1.4	-0.1
COc1ccc(/C=C2\SC(=S)N(CCC(=O)NCCO)C2=O)cc1	1.1	·
